D2 PAM = Beta-Arrestin HTS for Positive Allosteric Modulators of the Human D2 Dopamine Receptor: Potentiators. D(2) dopamine receptor (Homo sapiens), P14416. DiscoveRx D2 beta-arrestin cells, luminescence, 90 min; 100% = 57 uM dopamine signal. potentiation, % (no concentration beside the values). 360,000 compounds, 0.23% hits. AID 624464, 2012; active = potentiation of 50% or more; inconclusive = 30% to 50%; inactive = 30% or less;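 note: compound concentration not given in the record; tested on top of an EC20 dose of dopamine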
Target sequence (P14416 whole entry, looked up): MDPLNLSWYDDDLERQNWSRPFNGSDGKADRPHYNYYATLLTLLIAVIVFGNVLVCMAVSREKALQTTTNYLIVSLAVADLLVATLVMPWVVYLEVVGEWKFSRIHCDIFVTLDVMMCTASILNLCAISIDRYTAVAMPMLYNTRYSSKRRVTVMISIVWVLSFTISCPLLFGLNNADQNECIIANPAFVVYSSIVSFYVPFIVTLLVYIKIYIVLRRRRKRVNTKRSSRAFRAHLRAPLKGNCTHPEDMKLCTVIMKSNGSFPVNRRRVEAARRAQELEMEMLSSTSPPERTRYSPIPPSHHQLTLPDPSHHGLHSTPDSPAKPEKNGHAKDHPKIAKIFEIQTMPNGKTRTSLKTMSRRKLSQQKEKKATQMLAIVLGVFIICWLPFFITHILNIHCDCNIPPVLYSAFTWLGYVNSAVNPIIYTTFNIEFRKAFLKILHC
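PathHunter beta-arrestin assay in DiscoveRx D2 cells. Compounds were added with an EC20 of dopamine (50 nM final) for 90 min at 37 deg C. Luminescence was read 1 h after detection reagent, with 57 uM dopamine as the EC100 control.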
gsp ag = qHTS for Agonist of gsp, the Etiologic Mutation Responsible for Fibrous Dysplasia/McCune-Albright Syndrome: qHTS | AID 624287, 2012 | 340,000 compounds, 0.13% hits | Potency, µM (highest dose often 76.9 µM), for inactives: at the top dose activation (cAMP increase), actives largely listed as activators | gsp mutant cells, cAMP HTRF, 30 min; control for the full effect not named in the record; active = well fitted activation curve with a large enough effect; inconclusive = small, poorly fitted or top-dose-only effect, or another doubt; inactive = no such curve, though single readings can be large or run the other way; cell line not stated here;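 note: phosphodiesterase inhibitor Ro 20-1724 added with compounds to block cAMP breakdown; potency is the fitted concentration of half-maximal effect; nearly all actives have a fitted effect of over 60% in size; about a fifth of the inactives were tested at one dose only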
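Cells in DMEM/10% FBS with G418 were pretreated with compounds in DMSO plus […] (300 uM stock) for 30 min at 37C. cAMP was measured by HTRF (cAMP-d2 plus anti-cAMP antibody-K) after 30 min at room temperature.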
Menin MLL FP FL = qHTS Assay for Inhibitors Targeting the Menin-MLL Interaction in MLL Related Leukemias: Competition With Fluorescein Labeled MLL-derived Peptide; Fluorescence polarization, fluorescein-MLL peptide displacement from menin; 290,000 tested, under 10 active; FP activity change, % at 61.4 µM; inconclusive = falling polarisation curve, or a change in total fluorescence; inactive = total fluorescence flat and polarisation flat or rising; no compound was filed as active; the % refers to the polarisation; negative = inhibition;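 note: % of control where 0% means no effect; inhibitors lower the polarisation; unlabelled MLL peptide was the positive control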
Sfp PPTase inh = qHTS Assay for Inhibitors of Bacillus subtilis Sfp phosphopantetheinyl transferase (PPTase); Biochemical Sfp PPTase activity, qHTS; Potency, µM, inactives show max response, negative = inhibition, usual class: inhibitors; 310,000 compounds, 3.5% hits; AID 1490, 2009; active = well fitted inhibition curve with a large enough effect; inconclusive = small, poorly fitted or top-dose-only effect, or another doubt; inactive = no such curve, though single readings can be large or run the other way;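 note: the enzyme is Sfp with the accession as filed and its product quenches rhodamine fluorescence; potency is the fitted concentration of half-maximal effect; 0% = enzyme reaction without inhibitor and -100% = no enzyme wells; top concentration of the series not given in the record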
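With Hepes-Na pH 7.6 buffer containing 10 mM MgCl2, Sfp (15 nM) modified BHQ-2-YbbR (12.5 uM) using rhodamine-CoA (5 uM). Two reads 30 minutes apart at 525/598 nm yielded each well's rate.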
ClpP mod = qHTS Assay for Activators of ClpP; Potency, µM (highest dose often 57.5 µM), for the others: at the highest dose activity change, negative = active; 340,000 compounds, 1.9% hits; purified B. subtilis ClpP, FRET peptide cleavage, 20 min; active = well fitted falling curve with a large enough effect; inconclusive = small, poorly fitted or top-dose-only effect; inactive = no such curve, though single readings can be large or run the other way; note: potency is the fitted concentration of half-maximal effect; the source files actives as falling curves though it sought activators and does not explain the sign; nearly all actives have a fitted effect of over 65% in size; many hits overshoot -100%
Target sequence (P80244 whole entry, looked up): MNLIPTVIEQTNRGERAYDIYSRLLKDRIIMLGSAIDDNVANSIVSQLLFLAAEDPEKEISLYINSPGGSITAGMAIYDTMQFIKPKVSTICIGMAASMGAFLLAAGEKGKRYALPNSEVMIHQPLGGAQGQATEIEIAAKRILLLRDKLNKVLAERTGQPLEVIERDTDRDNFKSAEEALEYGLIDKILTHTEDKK
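Buffer: 100 mM Tris/HCl pH8, 100 mM KCl, 0.05% low protease BSA, 2.5% glycerol, 0.01% Tween-20. ClpP 10 microg/mL final; 20 min RT; delta FRET normalized to ADEP and DMSO controls.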
TRPV1 PAM = HTS Assay for Compounds that Act as Potentiators of the Vanilloid Receptor 1. Transient receptor potential cation channel subfamily V member 1 (Homo sapiens), Q8NER1. TRPV1-expressing cells, Fluo-8 calcium influx, capsaicin EC20 potentiation; host cell line not named in the record; control for the full effect not named in the record. potentiation, % at 8.33 µM. 320,000 compounds, 0.02% hits. AID 540277, 2011; active means potentiation above 80%; inconclusive means 30% to 80%; inactive means below 30%; note: 0% is about no effect
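Fluo-8 calcium influx in TRPV1-expressing cells, kinetic read (ex 480/em 520 nm). Compound added and read 3 min for agonist activity, followed by capsaicin at EC20 final and 2 min further read for enhancement.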
gsp antagonist = qHTS for Antagonists of gsp, the Etiologic Mutation Responsible for Fibrous Dysplasia/McCune-Albright Syndrome: qHTS; gsp-mutant cells, cAMP HTRF, 30 min; control for the full effect not named in the record; Potency, µM (highest dose often 76.9 µM), without a hit: at the highest dose activity change, negative = inhibition, hits mostly inhibitors; 340,000 compounds, 0.4% hits; active = falling curve of any shape with a large fitted effect; inconclusive = falling curve, mostly with a smaller effect; inactive = flat or rising curve; cell line not stated here;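 note: intracellular cAMP measured with PDE inhibitor Ro 20-1724 present during compound exposure; potency is the fitted concentration of half-maximal effect; % is set by controls: 0 for no effect and ±100 for the full control effect; nearly all actives have a fitted effect of over 65% in size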
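HTRF cAMP read-out (cAMP-d2 plus anti-cAMP antibody-K in lysis buffer, 30 min RT). Before lysis, cells are exposed to compounds with […] for 30 min at 37C in DPBS containing Ca/Mg, BSA and Tween 20.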
* marks the source's active call; other numbers are inactive results; ? = inconclusive; / = no result given; [ ] = dose if it differs, or a comment. These rows are one share of the data; count on the stated rates, not on these rows.

No.	Structure	ClpP mod	D2 PAM	TRPV1 PAM	Menin MLL FP FL	gsp ag	gsp antagonist	Sfp PPTase inh
1	CC1=CP(=O)(Oc2ccc([N+](=O)[O-])cc2)CC1 (centres undefined)	-1.1%	-13	/	/	-11%	/	/
2	Cc1cccc(-n2c(CN3C(=O)c4ccccc4C3=O)nc3ccccc3c2=O)n1	-4.1%	-18	/	/	17%	18%	/
3	C=C1C[C@]2(O)[C@@]3(C)CCC(=O)C(C)(C)C3=C(O)C(=O)[C@@]2(C)[C@@H]2C(=O)O[C@@](C)(C(=O)OC)C(=O)[C@@]12C	-6.2%	-14	9	2.5	/	-1%	21%
4	O=C1OC(c2ccc(Br)cc2)=N/C1=C\N1CC2CC(C1)c1cccc(=O)n1C2 (centres undefined)	-1.9%	-13	27	6.3	15%	-21%	-2%
5	OCCOCC#CCN1CCOCC1	-1.8%	-2	-3	-0.5	?	6%	8%
6	COCCNP(=O)(c1ccccc1)c1nc2ccccc2s1 (centres undefined)	/	/	5	-4.6	/	/	4%
7	COc1ccc(C(=O)CCNc2ccc(F)cc2)cc1	28µM*	-1	-20	0.7	-13%[15.4 µM]	7%	6%
8	CCN(CC)C(=O)Cn1cc(C=C2C(=O)N(C)C(=O)N(C)C2=O)c2ccccc21	0.4%	-3	-9	0.0	-7%[15.4 µM]	-18%	6%
9	C#C[C@@]1(O)CCC2C3CCC4=C/C(=N/OCC(=O)NC(CCC(N)=O)C(=O)O)CC[C@]4(C)C3CC[C@@]21C (some centres undefined)	1.8%	-4	-7	18	-3%	5%	4%
10	CCOC(=O)N(CC)c1ccc(C(O)(C(=O)OC)C(F)(F)F)cc1 (centres undefined)	-1.0%	-1	3	0.1	-43%[inhibitor]	-2%	13%
11	COC(=O)C1=C(c2ccc(OCc3ccccc3)cc2)C[C@@H]2CC[C@H]1N2C(=O)NCc1cccc(F)c1	-7.8%	-7	/	/	-25%	/	/
12	CC(=O)O[C@H]1CC[C@@]2(C)C(=CC[C@@H]3[C@@H]2CC[C@]2(C)C(=O)CC[C@@H]32)C1	-0.3%	-12	-5	/	/	-28%	/
13	COc1ccc(N=C(C)c2c(O)[nH]c(=O)[nH]c2=O)cc1	2.7%	-1	-52	-1.9	23%	13%	10%
14	c1ccc(CCNCc2cccs2)cc1	-0.4%	-3	-2	0.3	0%	18%	20%
15	CCOc1cc(/C=C2\C(=O)NC(=O)N(C)C2=O)cc([N+](=O)[O-])c1O	/	-2	-11	0.5	5%[15.4 µM]	-2%	28µM*
16	COC(=O)C1=C(c2ccc(-c3ccccc3)c(F)c2)C[C@@H]2CC[C@H]1N2C(=O)NC1CCCCC1	-12%	-10	6	/	-43%[inhibitor]	?	/
17	CC1CC(C)CN(CC(=O)c2ccc(OC(F)F)cc2)C1 (centres undefined)	-0.6%	-28	7	-0.9	?	19%	0%
18	O=C(Nc1cc(Cl)cc(Cl)c1)N1Cc2ccccc2-n2nncc2C1	-1.0%	0	/	/	-18%	/	/
19	N#Cc1ccc(CN2Cc3ccccc3-n3nncc3C2)cc1	0.1%	5	/	/	9%	/	/
20	O=C(Nc1nc2ccccc2n1CCN1CCCC1)c1ccc(Cl)cc1	?	-40	-1	6.1	9%	6%[15.4 µM]	19%
21	COc1cc(CC(=O)N2C[C@H]3C[C@@H](C2)c2cccc(=O)n2C3)cc(OC)c1OC	-0.6%	2	-1	/	/	6%	/
22	COc1ccc(C[C@H]2NC[C@H](O)[C@H]2OC(C)=O)cc1	-1.1%	-15	/	/	/	4%	7%
23	CCC1(CC)COP(=O)(OCC(Cl)CCl)OC1 (centres undefined)	0.3%	5	/	/	-4%[15.4 µM]	11%	/
24	CCOP(=S)(OCC)N1CC1	-0.1%	-5	/	/	9%[15.4 µM]	-3%	/
25	COC(=O)C1C2CC[C@@H](CC1OC(=O)c1ccccc1)N2 (some centres undefined)	0.4%	-9	/	/	/	7%	/
26	O=c1[nH]c(O)c(C=NC2CCN(Cc3ccccc3)CC2)c(=O)[nH]1	0.3%	-12	-4	6.4	7%	2%	-1%
27	Cc1ccc(-c2nn(Cc3ccccc3)cc2C=O)cc1	1.5%	-5	22	6.4	-26%[15.4 µM]	-9%	4%
28	CCN(CC)C(=O)c1ccc(NC(=O)c2cc(S(=O)(=O)N3CCCCCC3)ccc2OC)cc1	/	-6	9	/	-7%[15.4 µM]	?	/
29	CN(C)CCNC(=O)C(=O)NCC1OCCCN1S(=O)(=O)c1cccs1 (centres undefined)	0.4%	3	0	3.6	-1%	16%	17%
30	COc1ccc(-n2c(SC)nc3ccccc3c2=O)cc1	-3.0%	13	-3	-1.1	6%	-8%	5%
31	CC12CCC3C(CC=C4CC(O)CCC43C)C1C/C(=C\c1cccc(F)c1)C2=O (centres undefined)	1.2%	-11	-11	4.7	-13%	-18%	16%
32	Cc1cccc2c(CCN)c[nH]c12	/	-2	-38	4.4	-1%	13%	6%
33	COc1ccccc1NC1(C#N)CCCCC1	-1.7%	-2	-9	0.3	-27%	14%	19%
34	O=[N+]([O-])c1cc(F)c(N2CCCC2)cc1Br	/	2	4	-0.6	7%	-7%	-11%
35	COCCCn1c(N)c(C(=O)Nc2sc3c(c2C(=O)OC)CCCC3)c2nc3ccccc3nc21	1.3%	-22	1	4.7	?	5%	19%
36	O=C(c1ccc(C(F)(F)F)cc1)C1CCCN(C2CCSCC2)C1 (centres undefined)	/	-7	-14	-5.3	-6%[15.4 µM]	3%	9%
37	CC(NC(=O)Cn1c(=O)oc2cc(S(=O)(=O)N3CCCC3)ccc21)c1ccccc1 (centres undefined)	1.2%	-8	/	8.6	-31%[inhibitor]	-5%	-8%
38	O=P1(Oc2ccccc2)CC=C[C@H](COCc2ccccc2)O1 (some centres undefined)	2.3%	-2	3	1.1	14%	10%	7%
39	O=C(NCC(c1cccnc1)N1CCN(c2ccc(F)cc2)CC1)Oc1ccccc1 (centres undefined)	-1.2%	-8	-15	1.6	-5%	0%	2%
40	CC1(C(=O)O)CCC2(C)CCC3(C)C(=CC(=O)C4C5(C)CCC(=O)C(C)(C)C5CCC43C)C2C1 (centres undefined)	0.7%	-14	/	/	-57%[inhibitor]	/	/
41	CCC(C)n1c(O)c(C=NCCN2CCOCC2)c(=O)[nH]c1=S (centres undefined)	2.4%	-4	5	-0.1	4%[15.4 µM]	-28%	-9%
42	Cc1ccccc1CN1Cc2cnnn2-c2ccccc2C1C#N (centres undefined)	-0.1%	-10	/	/	/	-14%	/
43	COC(=O)CC(NC(=S)N1CC2C[C@@H](C1)Cn1c2cccc1=O)C(=O)OC (some centres undefined)	-1.5%	-3	-14	4.6	?	9%	9%
44	Cc1ccc(C(=O)C2CN3CCC2CC3)cc1 (centres undefined)	-0.3%	-21	8	0.3	14%	-1%	4%
45	CC1=NN(c2ccccc2)C(=O)C1/C=C1\C(=O)NC(=O)N(c2ccc(C)c(C)c2)C1=O (centres undefined)	0.6%	-8	6	18	5%	-9%	-20%
46	CC(N)C(=O)NC1C2C(=C(O)CC(O)C2O)C(=O)OC1(C)C(Cl)Cl (centres undefined)	3.1%	-11	/	/	-3%	6%	/
47	Cc1onc(-c2ccccc2Cl)c1C(=O)N1C=CC(C(F)(F)F)=NCC1	?	-2	?	-0.6	-30%	-10%	9%
48	Nc1ccc([N+](=O)[O-])cc1	-1.1%	-9	0	/	/	3%	/
49	COc1cc2c(cc1/C=C/[N+](=O)[O-])OCO2	-0.6%	-2	-6	4.5	-8%	-3%	-21%
50	NC1=NC(c2cccnc2)n2c(nc3ccccc32)N1 (centres undefined)	0.4%	6	12	-1.7	-3%[15.4 µM]	14%	20%
51	CC1(C)C(=O)CC[C@]2(C)C3C(=O)C=C4[C@H]5C[C@@](C)(C(=O)O)CC[C@]5(C)CC[C@]4(C)[C@]3(C)CC[C@@H]12 (some centres undefined)	-0.8%	-13	-28	-1.3	-41%[inhibitor]	10%	0%
52	O=C(N/N=C/c1c(O)n(C2CC2)c(=S)[nH]c1=O)c1ccccc1	-2.4%	-20	-20	1.3	18%	12%	24%
53	CCc1ccc(-n2c(O)c(/C=N/N3CCCCC3c3cccnc3)c(=O)[nH]c2=O)cc1 (centres undefined)	-1.9%	-4	-8	6.6	?	-2%	5%
54	CN(C)C(=O)Oc1ccc2nnc3ccnn3c2c1	-1.3%	-1	2	?	4%[15.4 µM]	3%	17%
55	Cc1nc2ccc(NC(=O)c3ccc(Cl)s3)cc2s1	4.7%	-8	-27	1.1	-13%	-19%	-2%
56	COc1ccccc1N1CCN(Cc2ccc(Br)s2)CC1	-4.3%	-4	-17	1.1	-3%	-9%	-22%
57	CC(=O)N1CCN(c2ccc([N+](=O)[O-])cc2C=C2C(=O)NC(=O)NC2=O)CC1	-1.2%	-16	18	2.6	2%	8%	-12%
58	COC(=O)C1=Nc2ccccc2/C1=C\c1c(O)n(-c2cc(OC)ccc2OC)c(=O)[nH]c1=O	6.6%	5	7	13	6%	-13%	?
59	CCCCOC(=O)c1ccc(NC(=O)c2c(O)[nH]c(=O)[nH]c2=O)cc1	?	-7	/	/	8%	13%	/
60	Cc1ccc2ccccc2c1NC(=O)CNC1CCCCC1	-0.2%	-12	-8	0.0	-9%	6%	-3%
61	COP(=O)(OC)C(NC(C)=O)C(Cl)(Cl)Cl (centres undefined)	/	-30	-4	-0.1	-22%[15.4 µM]	/	13%
62	Cc1ccc(NC(=S)NCCc2cnc[nH]2)cc1C	/	-11	23	0.5	8%	3%	-22%

Screening results: PubChem BioAssay, National Center for Advancing Translational Sciences (NCATS)
